Source: PubChem BioAssay
VDR inh: blocks the human vitamin D receptor; hit rate 0.93% among 400,000; P11473; Potency, µM, for the others: max response, negative = inhibition, hits mostly inhibitors; VDR-SRC2-3 peptide fluorescence polarization, 2 h; active means well fitted inhibition curve with a large enough effect; inconclusive means small, poorly fitted or top-dose-only effect, or another doubt; inactive means no such curve, though single readings can be large or run the other way; further: series mostly up to about 120 µM
Target sequence (P11473 whole entry, looked up): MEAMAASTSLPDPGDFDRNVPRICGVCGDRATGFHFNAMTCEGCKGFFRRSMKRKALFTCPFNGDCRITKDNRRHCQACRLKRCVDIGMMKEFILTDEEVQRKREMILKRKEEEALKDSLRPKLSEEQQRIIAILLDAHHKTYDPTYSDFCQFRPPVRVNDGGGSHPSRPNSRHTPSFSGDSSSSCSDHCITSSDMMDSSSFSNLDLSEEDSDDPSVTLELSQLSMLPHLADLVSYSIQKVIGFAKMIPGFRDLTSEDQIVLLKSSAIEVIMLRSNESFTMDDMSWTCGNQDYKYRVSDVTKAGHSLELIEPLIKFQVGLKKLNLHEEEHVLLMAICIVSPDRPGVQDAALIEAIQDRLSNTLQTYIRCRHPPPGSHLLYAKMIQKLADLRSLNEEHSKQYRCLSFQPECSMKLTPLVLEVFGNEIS
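VDR–SRC2-3 interaction, FP format. Cmpds 23 nl via pintool, brief spin, 2 h ambient incubation.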
An asterisk follows results filed as active; ? = inconclusive. On the % scale 0 is the no-effect control and ±100 the full control effect; potency means the concentration at half of the fitted maximal effect.

SMILES	VDR inh
O=C(CSc1nc(-c2ccco2)cc(C(F)(F)F)n1)N1CCCc2ccccc21	20%
Cc1nc(N)nc2c1CCCC2	-17%
CCOc1cc(NC(=S)NCC2CCCO2)c(OCC)cc1NC(=O)c1cccc(F)c1 (configuration not stated)	-1%
NS(=O)(=O)c1cccc(NC(=O)COC(=O)CC2CC3CCC2C3)c1 (configuration not stated)	2%
O=C(Cc1ccccc1[N+](=O)[O-])NNC(=O)c1cccs1	-7%
O=C(O)CCC(=O)NC1CCCCC1	9%
Cc1[nH]c2ccccc2c1/C=N/NC(=O)CNC(=O)c1ccc2c(c1)OCCO2	10%
Cc1cc(C)c(OCCN2CCCC2)c(Cl)c1	-22%
CCOc1ccc(-n2c(=O)c3c(C)c(C(=O)N(C)C)sc3n(CC(=O)Nc3ccccc3F)c2=O)cc1	-9%
Cc1cc(C)c(NC(=O)Cn2nnc(-c3nc(-c4ccncc4)no3)c2N)c(C)c1	19%
Cc1c(Cl)cccc1NC(=S)NNS(=O)(=O)c1ccc([N+](=O)[O-])cc1	-14%
CCOC(=O)c1noc2nc(C)n(CC(=O)Nc3cccc(OC)c3)c(=O)c12	4%
CC(CC(=O)Nc1ccc(Cl)c([N+](=O)[O-])c1)c1ccccc1 (configuration not stated)	19%
CCOc1ccc(N(CC(=O)Nc2ccc(OC)cc2)S(C)(=O)=O)cc1	24%
O=c1c2c(-c3ccc(Cl)cc3)csc2nc2n1CCC2	-2%
O=C(Nc1ccc2nc(SCC(=O)N3CCOCC3)sc2c1)c1ccc(Cl)cc1	1%
COc1ccc(C(=O)Nc2cc(-c3ccc(C)cc3)no2)cc1	11%
Cc1ccc(/C=N/N=C/c2ccc(C)cc2)cc1	-15%
O=C(CN1CCN(c2ccc(Cl)cc2)CC1)NCc1ccccc1	-12%
N#CC(Cc1cc2ccccc2n1S(=O)(=O)c1ccccc1)OCc1ccccc1 (configuration not stated)	1%
CCSc1nnc(N(CCC(=O)O)CCC(=O)O)s1	-21%
CC(C)Cn1c(N)c(C(=O)CSc2n[nH]c(N)n2)c(=O)n(C)c1=O	8%
COc1ccc(CN(C(=O)/C=C/c2ccco2)C2CCS(=O)(=O)C2)cc1 (configuration not stated)	6%
COC(=O)c1ccccc1NC(=O)c1cnc2sc(N3CCOCC3)nn2c1=O	-1%
COc1ccc(NC(=O)CCC(=O)N(Cc2ccc(OC)c(OC)c2)c2nccs2)c(OC)c1	-5%

The list continues.
SMILES	VDR inh
Cc1ccc(C(=O)N/C(=C/c2ccco2)C(=O)N2CCC(C)CC2)cc1	-12%
Cc1cc(C)nc(NC(=O)c2cccc([N+](=O)[O-])c2C)n1	20%
COc1ccc(/C=C/C(=O)Nc2ccc3nc(N4CCCCC4)cc(C)c3c2)cc1OC	11%
Cc1ccc(CSCC(=O)Nc2ccccc2F)cc1	-7%
Cc1c(OCc2nn[nH]n2)ccc2c(-c3ccccc3)cc(=O)oc12	-9%
CCCc1ccc(-c2c(C)sc(NC(=O)c3ccnn3C)c2C#N)cc1	-6%
CCc1cccc(C)c1NC(=O)COC(=O)CSCc1ccccc1	-1%
O=C(Nc1cc(S(=O)(=O)N2CCOCC2)ccc1N1CCOCC1)C1CCCO1 (configuration not stated)	-21%
Cc1c(C(=O)O)cccc1-n1c(C)cc(C=O)c1C	14%
CC1CCCN(S(=O)(=O)c2ccc3c(c2)C(C)(C)C(=O)N3C)C1 (configuration not stated)	5%
CCCc1nnc(NC(=O)Cc2coc3ccc(C)cc23)s1	11%
O=C(Nc1ccccc1N1CCOCC1)c1ccccc1NS(=O)(=O)c1ccc(F)cc1	14%
O=C(CCn1cccn1)Nc1ccc(-c2ccno2)cc1	-7%
NC(=O)C1CCN(Cc2nc3ccccc3c(=O)[nH]2)CC1	5%
CC(C)(C)C(=O)C1=C(O)C(=O)N(c2ccccc2)C1c1ccccc1 (configuration not stated)	-11%
CN(CC(=O)Nc1ccncc1)S(=O)(=O)c1ccc(Br)cc1	14%
Cc1ccc(-c2c3c(=O)n(C)c(=O)n(C)c3c3c(C(F)(F)F)nc4ccccc4n23)cc1	-17%
CC(C)(C)c1ccccc1NC(=O)Cn1c(=O)cnc2ccccc21	0%
CC(C)C[C@@H](COCc1cccc(Cl)c1)N1CCN(C(=O)c2cccc(C(F)(F)F)c2)CCC1=O	-3%
O=C(COc1cc(F)ccc1[N+](=O)[O-])Nc1ccc2c(c1)OCO2	-11%
COc1ccc(C2=CC(c3sccc3C)n3nnnc3N2)cc1 (configuration not stated)	-6%
COc1cc(C)nc(Oc2ccc(=O)n(C)n2)n1	-18%
Nc1cccnc1Sc1cc(Cl)cc(Cl)c1	-23%
CC(C#N)(NC(=O)CN1CCN(S(=O)(=O)c2ccccc2Cl)CC1)C1CC1 (configuration not stated)	9%
O=C(CCNC(=O)c1ccc(Br)cc1)NCC1COc2ccccc2O1 (configuration not stated)	22%

The list goes on.
SMILES	VDR inh
COc1ccc(CNc2ccc(Br)cc2)cc1	3%
CCN(CC)S(=O)(=O)c1ccc(N2CCN(C)CC2)c(NC(=O)Nc2ccc(C)cc2)c1	1%
CCCCOc1ccc(S(=O)(=O)Nc2ccc(-c3ccc(N4CCCCC4)nn3)cc2)cc1	7%
COc1ccc(-n2c(=S)[nH]c3cc(C(=O)Nc4ccccc4OC)ccc3c2=O)c(OC)c1	-12%
COc1ccc(-c2cc(C(C)=O)c(C)n2CCC(=O)NCc2ccc(F)cc2)cc1	6%
N#CCCN(C(=S)NC(=O)c1ccco1)c1ccccc1F	-10%
CC(Cn1nnc2ccccc21)C(=O)O (configuration not stated)	-9%
C=CCc1cccc(/C=N/c2ncn[nH]2)c1O	-3%
CCOC(=O)C(C)Oc1ccccc1C1NC(=O)NC(C)=C1C(=O)Nc1ccc(C)c(C)c1 (configuration not stated)	-5%
COc1ccc(OCc2nn[nH]n2)cc1	-10%
COc1ccccc1NC(=O)c1sc2nc(C)c(C(=O)Nc3ccc(Cl)cc3)c(-c3ccc(Br)cc3)c2c1N	-2%
CCOC(=O)c1cnc2c(-c3cccc(Br)c3)cnn2c1C	-5%
Cc1cccc(N2C(=O)C3CCCN3C2=S)c1 (configuration not stated)	20%
O=c1[nH]n2c(C(F)(F)F)cc(C3CC3)nc2c1N=Nc1ccccc1	22%
CN(C)CCNC(=S)Nc1ccccc1C(C)(C)C	?
S=c1nc(-c2cccc(Cl)c2)[nH][nH]1	-15%
Nc1nc(-c2ccco2)nn1C(=O)c1cccnc1	1%
CNC(=O)C1(C)C=CCN1C(=O)c1ccccc1 (configuration not stated)	-5%
O=Cc1ccc(Sc2nnc(-c3ccccc3)o2)c([N+](=O)[O-])c1	79µM*
Cc1cccc(N=c2oc3cc(O)ccc3cc2C(N)=O)c1	-7%
Cc1cccc(N2C(=O)N(CC(=O)C(C)(C)C)c3ccccc3S2(=O)=O)c1C	11%
CCc1cc(=O)[nH]c(SCCc2ccccc2)n1	0%
Cc1cccc(/C=N/n2c(C)nnc2C)c1	11%
COc1ccc(S(=O)(=O)Nc2ccc3c(c2)C(=O)N([C@H](C)CO)C[C@H](C)[C@@H](CN(C)S(=O)(=O)c2ccccc2)O3)cc1	-7%
COc1ccc(CNC(=O)C(C)n2ccc3cc(S(=O)(=O)N4CCCC4)ccc32)cc1OC (configuration not stated)	3%

The list continues:
SMILES	VDR inh
Fc1ccc(C2CC(c3ccc(F)cc3)n3ncnc3N2)cc1 (configuration not stated)	2%
COc1ccc(N2CCN(C(=O)CSc3nc4ccccc4nc3Cc3ccc(Cl)cc3)CC2)cc1	-4%
CNC(=O)COC(=O)c1ccccc1NC(=O)c1ccco1	-15%
O=C(N=C1SC2CS(=O)(=O)CC2N1c1ccc(Br)cc1F)C1CC1 (configuration not stated)	16%
O=C(O)c1nn(CCOc2c(Cl)cccc2Cl)c(=O)c2ccccc12	-26%
Cc1cc(N2CCC(C(=O)NCC3CC3)CC2)nc(-c2ccccc2)n1	-5%
CC(C)[C@H](NC(=O)C1(c2ccccc2)CCN(C(=O)OC(C)(C)C)CC1)C(=O)O	-11%
C=CCN(CC=C)Cc1nc(N)nc(Nc2ccccc2C)n1	19%
O=C(CCC1CCCN(C(=O)c2ccsc2)C1)NCc1ccc(F)c(F)c1 (configuration not stated)	2%
CC1CCC(NC(=O)c2cccc(S(=O)(=O)NCc3ccccc3)c2)CC1 (configuration not stated)	4%
O=C(NCCCN1CCOCC1)C(=O)N/N=C/c1ccccc1Cl	5%
Cc1ccc(CSC2=Nc3ccccc3C3=NC(CCC(=O)NCCc4ccccc4)C(=O)N23)cc1 (configuration not stated)	-8%
Cc1cccn2c(=O)c3cc(C(=O)NCCc4ccccc4)c(=N)n(CC4CCCO4)c3nc12 (configuration not stated)	4%
CC(C)(C)N(Cc1cc2ccccc2[nH]c1=O)C(=O)c1cccc([N+](=O)[O-])c1	1%
COCCn1c(-c2ccc(C)cc2)nc2oc3cc(OC)ccc3c(=O)c2c1=O	-11%
O=[N+]([O-])c1cccc(-c2nnc(CNC3CC3)o2)c1	-7%
C=CCn1c(SCC(=O)NCc2ccco2)nnc1C1CCCCC1	10%
Clc1ccc(N2CCOCC2)nn1	-12%
Cc1cc(C)c2cc(CN(CCN(C)C)C(=O)Nc3ccccc3Cl)c(=O)[nH]c2c1	-10%
Cc1cc(-n2c(C)c3c(C)nnc(C)c3c2C)ccc1N	-3%
CCOC(=O)CCP(=O)(O)C(O)c1ccc(OC)cc1 (configuration not stated)	9%
CNC(=O)c1c(NC(=O)C2=COCCO2)sc2c1CCCC2	-4%
COc1ccc(C(=O)OCC(=O)NCC2CCCO2)cc1S(=O)(=O)N1CCCc2ccccc21 (configuration not stated)	-7%
O=C(CCCn1c(=O)c2sccc2n(Cc2c(F)cccc2Cl)c1=O)NCc1ccccc1	15%
Cc1cc(C)cc(N2CC(c3nc(-c4ccccc4C)no3)CC2=O)c1 (configuration not stated)	-3%

Following part.
SMILES	VDR inh
O=C(NCCO)Nc1ccc2nsnc2c1	-14%
C=C1C(=O)O[C@@H]2[C@@H]1CC/C(C)=C\CC[C@@]1(C)O[C@H]21	?
CCOC(=O)c1sc2ccccc2c1OC(=O)c1ccccc1OC	4%
Cc1cccc(Cn2cnc3c(nnn3Cc3ccc(Cl)cc3)c2=O)c1	6%
CSCCC1NC(=O)N(CC(=O)Nc2c(C(C)C)cccc2C(C)C)C1=O (configuration not stated)	-2%
Cc1ccccc1N1CC(C(=O)Nc2ccncc2)CC1=O (configuration not stated)	0%
COc1cccc(C(=O)NCC2OCCc3ccccc32)c1 (configuration not stated)	-11%
CCN1CCN(CCCNC(=O)c2ccc3nc(Cc4ccccc4)oc3c2)CC1	10%
CC(C)(C)NC(=O)C(=O)NN=C1CCCCCCCCCCC1	13%
COC(=O)N(C)c1ccccc1C(=O)N1CCOCC1	2%
O=C(c1cc(S(=O)(=O)N2CCOCC2)ccc1F)N1CCc2ccccc21	12%
Cc1cc(=O)[nH]c(NN=C(CC(C)C)CC(C)C)n1	1%
COc1ccc(/C=C(\NC(=O)c2ccccc2)C(=O)N/N=C/c2sccc2C)cc1	-3%
Nc1ccc(N=Nc2ccccc2Cl)c(N)n1	13%
N#CCCCN1C(=O)C(=C(C#N)C#N)c2ccccc21	?
Cc1noc(C)c1COC(=O)CCc1ccc(S(=O)(=O)N2CCCCC2)cc1	-12%
CCN(CC)S(=O)(=O)c1ccc2nc(NC(=O)c3ccco3)sc2c1	-2%
CCCNCc1cc(OCC)c(OCC(=O)Nc2ccccc2)cc1Br	0%
COC(=O)N1CCC2(CC1)CN(c1ccccn1)C2	5%
O=S(=O)(c1ccc(C2CCCCC2)cc1)N1CCCC1	7%
O=C(CSc1nc(=O)n2ccccc2n1)NC1CCCCC1	-5%
Cc1cccc(CNc2ccnc(-c3ccc(N(C)C)cc3)n2)c1	?
COc1ccc(OCC(=O)Nc2ccc(S(=O)(=O)N3CCOCC3)cc2)cc1	-1%
CCN1N=C(c2ccccc2)CCC1=O	16%
CCCCNC(=O)Nc1ncn[nH]1	-23%
Cc1ccc(SC(C)C(=O)NCC(C)C)cc1 (configuration not stated)	13%
Cc1ccccc1C(=O)NNC(=O)c1ccoc1C	12%
CSCC[C@H](NC(=O)N1CCn2c1nc1ccccc12)C(=O)NCc1ccco1	-16%
COc1ccccc1/C=C(/CC(=O)NCc1ccccc1)c1nc2ccccc2s1	5%

Some of these compounds in order of count of non-hydrogen atoms, ascending:
SMILES	VDR inh
CCCCNC(=O)Nc1ncn[nH]1	-23%
O=C(O)CCC(=O)NC1CCCCC1	9%
COc1ccc(OCc2nn[nH]n2)cc1	-10%
O=C(NCCO)Nc1ccc2nsnc2c1	-14%
Cc1ccc(SC(C)C(=O)NCC(C)C)cc1 (configuration not stated)	13%
CCc1cc(=O)[nH]c(SCCc2ccccc2)n1	0%
Cc1ccccc1C(=O)NNC(=O)c1ccoc1C	12%
N#CCCCN1C(=O)C(=C(C#N)C#N)c2ccccc21	?
O=C(CCn1cccn1)Nc1ccc(-c2ccno2)cc1	-7%
CCCc1nnc(NC(=O)Cc2coc3ccc(C)cc23)s1	11%
COc1ccc(C2=CC(c3sccc3C)n3nnnc3N2)cc1 (configuration not stated)	-6%
O=C(NCCCN1CCOCC1)C(=O)N/N=C/c1ccccc1Cl	5%
CCOC(=O)c1sc2ccccc2c1OC(=O)c1ccccc1OC	4%
Cc1cc(C)cc(N2CC(c3nc(-c4ccccc4C)no3)CC2=O)c1 (configuration not stated)	-3%
CC(C#N)(NC(=O)CN1CCN(S(=O)(=O)c2ccccc2Cl)CC1)C1CC1 (configuration not stated)	9%
Cc1cccc(N2C(=O)N(CC(=O)C(C)(C)C)c3ccccc3S2(=O)=O)c1C	11%
COC(=O)c1ccccc1NC(=O)c1cnc2sc(N3CCOCC3)nn2c1=O	-1%
COc1ccc(-c2cc(C(C)=O)c(C)n2CCC(=O)NCc2ccc(F)cc2)cc1	6%
CCN(CC)S(=O)(=O)c1ccc(N2CCN(C)CC2)c(NC(=O)Nc2ccc(C)cc2)c1	1%
COc1ccc(CNC(=O)C(C)n2ccc3cc(S(=O)(=O)N4CCCC4)ccc32)cc1OC (configuration not stated)	3%
COc1ccc(C(=O)OCC(=O)NCC2CCCO2)cc1S(=O)(=O)N1CCCc2ccccc21 (configuration not stated)	-7%

This is a subset; count on the stated rates, not on these rows.
